MLL AF4-AF9 inh – inhibitors of human MLL-AF4/AF9 interaction | AlphaScreen, biotin-AF4 peptide binding to FLAG-AF9 | P42568 | inhibition, % at 10 µM | 350,000 tested, 0.47% active;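 active means every replicate reaching a set inhibition limit, whatever the replicate mean, cut at about 25% in these data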;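 further: 0% = plate neutral control median and 100% = total signal loss; the record names both 10 and 1 µM as test concentration; the first replicate is given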
Target sequence (P42568 whole entry, looked up): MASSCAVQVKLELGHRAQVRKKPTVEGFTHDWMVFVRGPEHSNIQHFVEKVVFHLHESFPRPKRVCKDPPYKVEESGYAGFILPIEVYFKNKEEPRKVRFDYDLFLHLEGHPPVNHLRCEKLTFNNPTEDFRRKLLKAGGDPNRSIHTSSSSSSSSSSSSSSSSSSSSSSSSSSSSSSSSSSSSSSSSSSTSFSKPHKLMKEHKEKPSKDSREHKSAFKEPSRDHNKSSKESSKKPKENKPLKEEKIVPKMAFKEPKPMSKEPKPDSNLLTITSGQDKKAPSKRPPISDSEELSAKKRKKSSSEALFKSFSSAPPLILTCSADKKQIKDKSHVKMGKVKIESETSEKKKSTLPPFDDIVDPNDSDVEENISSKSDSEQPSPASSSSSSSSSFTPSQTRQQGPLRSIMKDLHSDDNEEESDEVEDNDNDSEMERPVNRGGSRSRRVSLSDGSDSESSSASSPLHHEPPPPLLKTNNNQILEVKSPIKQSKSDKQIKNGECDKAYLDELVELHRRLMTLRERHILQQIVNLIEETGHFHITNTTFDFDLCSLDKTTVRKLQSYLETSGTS
Ecoli rRNA inh – inhibitors of bacterial rRNA selective over humanized ribosomes; 350,000 tested, 1.6% active; GFP signal change (wild-type ribosome), % (test concentration not listed); E. coli WT GFP vs humanized-ribosome RFP mutants, fluorescence, 24 h; active compounds read low; DMSO median 0, no signal -100; AID 720706;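 active means significant combined selectivity score with lowered wild-type GFP, culture density cut under 30%, mutant RFP and density less affected; inactive means any of these conditions unmet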; further: one replicate is shown; some compounds called inactive have numbers as strong as hits
Ecoli rRNA inh OD600 – also measured in Ecoli rRNA inh; calls as there; OD600 change, %; measured here: OD600 growth;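 optical density of the mix in the first replicate; 0 = DMSO median and -100 = no signal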
Ecoli rRNA inh RFP – also measured in Ecoli rRNA inh; calls as there; RFP signal change, %; measured here: RFP humanized mutant strains;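 first replicate; 0 = DMSO median and -100 = no signal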
Numbers without * were called inactive. Only part of the results is shown; the hit share may differ from the screen's.

item	MLL AF4-AF9 inh	Ecoli rRNA inh	Ecoli rRNA inh OD600	Ecoli rRNA inh RFP	Structure
1	-1.9	-6	5	0.1	C[C@H](CO)N1C[C@H](C)[C@@H](CN(C)S(=O)(=O)c2ccc(F)cc2)Oc2ccc(NC(=O)Cc3cn(C)c4ccccc34)cc2CC1=O
2	4.6	-17	-29	4.1	COC(=O)[C@]12C[C@H](CC(=O)N3CCN(C(=O)c4ccco4)CC3)C(=O)N(Cc3ccc4c(c3)OCO4)C1=C[C@H](C(C)(C)C)O[C@@H]2C
3	-1.0	-3	-8	0.4	C[C@H]1CN([C@@H](C)CO)C(=O)c2cc(NS(=O)(=O)c3ccccc3)ccc2O[C@H]1CN(C)Cc1ccncc1
4	-1.6	-3	-17	2.8	Cc1cccc(NC(=O)CSCC(=O)Nc2cc(C(F)(F)F)ccc2N2CCOCC2)c1
5	3.2	2	4	2.9	CCCC#Cc1cnc2c(c1)C(=O)N([C@@H](C)CO)C[C@H](C)[C@@H](CN(C)CCC)O2
6	-0.5	-1	-4	-1.3	CCCC(=O)Nc1ccc2c(c1)C(=O)N(C)[C@H]1CC[C@@H](CC(=O)NCC3CC3)O[C@H]1CO2
7	1.9	-8	-11	2.9	CO[C@@H]1CN(C)C(=O)c2ccc(NC(=O)Nc3ccccc3)cc2OC[C@@H](C)N(C(=O)CC2CC2)C[C@H]1C
8	-2.0	-6	-14	3.1	O=C(C[C@H]1CC[C@@H](NC(=O)c2ccccc2)[C@H](CO)O1)Nc1ccc(-c2ccccc2)cc1
9	-7.2	1	7	-2.2	C[C@@H]1CCCCO[C@@H](CN(C)S(C)(=O)=O)[C@@H](C)CN([C@H](C)CO)C(=O)c2cc(NC(=O)CCCN(C)C)ccc2O1
10	1.7	2	-6	-0.9	CCc1nc2c(OCc3ccccc3)cccn2c1N(C)C(=O)c1ccc2c(c1)OCO2
11	2.0	-4	-12	-1.6	O=C(NC1CCCCC1)[C@H]1N[C@H]2c3ccc(-c4cccc(F)c4)c(=O)n3C[C@H]2[C@@H]1CO
12	-2.4	-2	2	-2.7	COc1cccc(CNC(=O)[C@H]2[C@H](CO)[C@H]3Cn4c(cccc4=O)[C@@H]2N3C(=O)C2CCCCC2)c1
13	-0.3	1	0	0.0	CN1[C@@H]2Cn3c(ccc(-c4ccccc4)c3=O)[C@H]1[C@@H](C(=O)NCC1CC1)[C@@H]2CO
14	4.5	-2	3	-0.4	Cc1ccc(S(=O)(=O)Nc2cccc3c2O[C@@H](CN(C)Cc2ccc(C(F)(F)F)cc2)[C@H](C)CN([C@H](C)CO)C3=O)cc1
15	4.7	-2	-5	0.8	CO[C@H]1CN(C)C(=O)c2cc(NC(C)=O)ccc2OC[C@H](C)N(Cc2cccc(F)c2)C[C@H]1C
16	-0.9	1	1	-0.4	COc1cccc(CNC(=O)C[C@@H]2C=C[C@H](NC(=O)C3CC3)[C@H](CO)O2)c1
17	4.3	3	17	7.8	Cc1cc(C(=O)COC(=O)c2ccc(NC(=O)CC#N)cc2)c(C)n1CC(F)(F)F
18	0.5	3	3	1.3	COCCNC(=O)C[C@H]1C[C@H]2c3cc(NS(C)(=O)=O)ccc3O[C@H]2[C@@H](CO)O1
19	-1.0	6	8	-4.4	C[C@@H]1CN([C@@H](C)CO)C(=O)Cc2cc(NC(=O)C3CCCCC3)ccc2O[C@@H]1CN(C)CC1CC1
20	-1.0	2	9	-0.4	COc1ccc(NC(=O)Nc2ccc3c(c2)C(=O)N([C@H](C)CO)C[C@@H](C)[C@H](CN(C)Cc2ccc(C(=O)O)cc2)OCCCC[C@@H](C)O3)cc1
21	0.3	-2	-19	9.1	C[C@H]1CN([C@@H](C)CO)C(=O)c2cc(C#Cc3ccccc3F)cnc2O[C@@H]1CN(C)C(=O)C1CCC1
22	-0.3	-1	-13	-3.1	Cc1ccc(S(=O)(=O)N(C)C[C@@H]2Oc3c(NC(=O)Nc4ccccc4)cccc3C(=O)N([C@H](C)CO)C[C@H]2C)cc1
23	-4.5	4	11	-3.5	Cc1noc(C)c1NC(=O)Nc1ccc2c(c1)CC(=O)N([C@H](C)CO)C[C@H](C)[C@@H](CN(C)C(=O)Nc1c(C)noc1C)O2
24	-0.4	4	-4	0.1	COc1ccc(S(=O)(=O)N(C)C[C@H]2Oc3ccc(NC(=O)CCCN(C)C)cc3CC(=O)N([C@@H](C)CO)C[C@@H]2C)cc1
25	1.2	-3	-2	-1.8	O=C(C[C@H]1CC[C@H]2[C@@H](COC[C@@H](O)CN2S(=O)(=O)c2ccc(F)cc2)O1)N[C@H]1CCN(Cc2ccccc2)C1
26	0.8	-1	-6	3.1	Cc1ccc(S(=O)(=O)N(C)C[C@H]2Oc3ccc(NC(=O)c4ccncc4)cc3CC(=O)N([C@H](C)CO)C[C@@H]2C)cc1
27	2.6	-2	-34	16	COc1ccc(NC(=O)N2CCCCN3[C@H](CO)[C@H](c4ccc(C#CCC(C)C)cc4)[C@@H]3C2)cc1
28	2.6	-2	-3	1.0	C[C@@H](O)C#Cc1ccc([C@@H]2[C@H]3CN(CC4CC4)CCCCN3[C@H]2CO)cc1
29	-1.7	-2	-1	-2.4	C[C@H]1CN([C@@H](C)CO)C(=O)CCCn2nncc2CO[C@@H]1CN(C)S(=O)(=O)c1ccccc1C#N
30	-1.2	-4	3	2.8	N#Cc1ccc(-c2ccc([C@@H]3[C@H]4CN(C(=O)Cc5ccccc5)CC(=O)N4[C@H]3CO)cc2)cc1
31	-2.5	-1	-4	1.5	CNC[C@@H]1Oc2c(NC(=O)c3ccc(-c4nccs4)cc3)cccc2C(=O)N([C@@H](C)CO)C[C@H]1C
32	-6.8	12	5	0.7	CCOC1=C2CN(S(=O)(=O)c3ccc(C)cc3)[C@H](c3ccccc3)C[C@H]2n2c(=O)n(-c3ccccc3)c(=O)n2C1
33	-8.9	-2	-6	-2.9	COc1cccc(-c2ccc3c(c2)[C@@H]2[C@@H](CCN2S(=O)(=O)c2cccc(OC)c2)[C@@H](CO)N3)c1
34	-1.4	-4	-29	32	CC(=O)Nc1ccc(-c2ccnc3c2CC(C)(C(=O)Nc2ccc(F)c(Cl)c2)O3)cc1 (configuration not stated)
35	2.4	-16	-49	27	CO[C@@H](CN(C)S(=O)(=O)c1ccc(C)cc1)[C@@H](C)CN([C@H](C)CO)S(=O)(=O)c1cccc(Cl)c1
36	-12	2	1	-3.2	C[C@H]1CN([C@@H](C)CO)C(=O)c2cc(NC(=O)Cn3cnnn3)ccc2O[C@H]1CN(C)C(=O)Nc1ccc2c(c1)OCO2
37	-0.2	2	4	-0.7	C/C=C/c1ccccc1[C@H]1[C@@H](C#N)N(C(=O)CN2CCOCC2)[C@@H]1CO
38	-2.6	-2	-8	-2.8	Cc1noc(C)c1NC(=O)N(C)C[C@@H]1Oc2ccc(NC(=O)Nc3ccccc3)cc2C(=O)N([C@H](C)CO)C[C@H]1C
39	-1.8	3	12	-0.5	COc1ccc(S(=O)(=O)N(C)C[C@H]2OCCCC[C@@H](C)Oc3ccc(NC(=O)c4ccccc4)cc3C(=O)N([C@@H](C)CO)C[C@H]2C)cc1
40	-2.3	4	-2	22	CN(C)C(=O)C[C@@H]1CC[C@@H]2[C@H](COC[C@H](O)CN2C(=O)C2CCOCC2)O1
41	-3.7	1	6	0.5	C[C@@H]1CCCCO[C@@H](CN(C)C(=O)c2ccncc2)[C@H](C)CN([C@H](C)CO)C(=O)c2cc(NC(=O)C3CCCCC3)ccc2O1
42	-1.9	2	-1	-2.8	CN1CCN(C(=O)C[C@H]2CC[C@H](NC(=O)Cc3ccccn3)[C@@H](CO)O2)CC1
43	0.2	2	7	3.2	CCNC(=O)Nc1ccc2c(c1)C(=O)N(C)[C@@H]1CC[C@@H](CC(=O)NCc3ccccc3F)O[C@H]1CO2
44	1.7	-3	1	-2.8	C[C@H](CO)N1C[C@H](C)[C@@H](CN(C)S(=O)(=O)c2ccccc2)OCCCC[C@H](C)Oc2ccc(NC(=O)Nc3ccc4c(c3)OCO4)cc2C1=O
45	-2.8	-7	-1	-1.1	CN1C(=O)c2cc(NC(=O)c3ccc(Cl)cc3)ccc2OC[C@H]2O[C@@H](CC(=O)O)CC[C@H]21
46	-1.2	5	8	1.8	CNC[C@H]1Oc2c(NC(=O)NC(C)C)cccc2C(=O)N([C@@H](C)CO)C[C@H]1C
47	-3.5	7	10	-0.3	CNC[C@@H]1Oc2ccc(NS(C)(=O)=O)cc2CC(=O)N([C@H](C)CO)C[C@H]1C
48	0.6	2	0	-1.8	O=C(C[C@H]1C=C[C@@H](NC(=O)c2cnccn2)[C@H](CO)O1)NCc1ccccc1F
49	-0.8	1	4	1.4	C[C@@H]1CN([C@@H](C)CO)C(=O)c2cc(NC(=O)c3ccncc3)ccc2O[C@@H]1CN(C)Cc1ccc(C(=O)O)cc1
50	-8.9	4	10	0.4	COCC#Cc1ccc2c(c1)O[C@H](CN(C)CC1CCOCC1)[C@H](C)CN([C@H](C)CO)S2(=O)=O
51	0.2	0	-1	-0.1	O=C(C[C@@H]1C=C[C@H](NC(=O)c2ccncc2)[C@H](CO)O1)NCC1CC1
52	0.7	-4	0	2.4	CO[C@@H]1CN(C)C(=O)c2cc(NC(=O)Nc3ccccc3F)ccc2OC[C@@H](C)N(CC2CC2)C[C@H]1C
53	-15	-2	-4	1.1	CCS(=O)(=O)N[C@H]1CC[C@@H](CC(=O)Nc2ccc(-c3ccccc3)cc2)O[C@@H]1CO
54	0.0	-8	-16	1.4	C[C@@H]1CN([C@@H](C)CO)C(=O)c2cc(NS(=O)(=O)c3cccs3)ccc2O[C@@H]1CN(C)C(=O)Nc1ccc(C(F)(F)F)cc1
55	-3.4	-1	9	-0.6	CCC(=O)N1[C@H](CO)[C@H](c2ccccc2)[C@@H]1CN(CC)C(=O)c1cccc(F)c1
56	-7.1	-57	-70	-11	O=C(c1ccc2c(c1)OCO2)N1CCCCN2[C@H](CO)[C@@H](c3ccc(-c4ccccc4)cc3)[C@@H]2C1

Compounds listed so far that contain an aryl methoxy group:
item	MLL AF4-AF9 inh	Ecoli rRNA inh	Ecoli rRNA inh OD600	Ecoli rRNA inh RFP	Structure
12	-2.4	-2	2	-2.7	COc1cccc(CNC(=O)[C@H]2[C@H](CO)[C@H]3Cn4c(cccc4=O)[C@@H]2N3C(=O)C2CCCCC2)c1
16	-0.9	1	1	-0.4	COc1cccc(CNC(=O)C[C@@H]2C=C[C@H](NC(=O)C3CC3)[C@H](CO)O2)c1
20	-1.0	2	9	-0.4	COc1ccc(NC(=O)Nc2ccc3c(c2)C(=O)N([C@H](C)CO)C[C@@H](C)[C@H](CN(C)Cc2ccc(C(=O)O)cc2)OCCCC[C@@H](C)O3)cc1
24	-0.4	4	-4	0.1	COc1ccc(S(=O)(=O)N(C)C[C@H]2Oc3ccc(NC(=O)CCCN(C)C)cc3CC(=O)N([C@@H](C)CO)C[C@@H]2C)cc1
27	2.6	-2	-34	16	COc1ccc(NC(=O)N2CCCCN3[C@H](CO)[C@H](c4ccc(C#CCC(C)C)cc4)[C@@H]3C2)cc1
33	-8.9	-2	-6	-2.9	COc1cccc(-c2ccc3c(c2)[C@@H]2[C@@H](CCN2S(=O)(=O)c2cccc(OC)c2)[C@@H](CO)N3)c1
39	-1.8	3	12	-0.5	COc1ccc(S(=O)(=O)N(C)C[C@H]2OCCCC[C@@H](C)Oc3ccc(NC(=O)c4ccccc4)cc3C(=O)N([C@@H](C)CO)C[C@H]2C)cc1

Next compounds
item	MLL AF4-AF9 inh	Ecoli rRNA inh	Ecoli rRNA inh OD600	Ecoli rRNA inh RFP	Structure
57	5.5	-6	2	1.0	O=c1c(-c2cccnc2)nc2ccccc2n1C(c1ccccn1)c1nc2ccccc2[nH]1 (configuration not stated)
58	-0.7	4	20	0.9	CCCN(C)C[C@H]1Oc2ncc(-c3cccnc3)cc2C(=O)N([C@@H](C)CO)C[C@@H]1C
59	3.1	-7	-5	0.7	C[C@H](CO)N1C[C@H](C)[C@H](CN(C)Cc2cccc(C(F)(F)F)c2)Oc2ncc(Br)cc2C1=O
60	-7.0	7	12	-3.1	CCCC(=O)N1CC2(CN(C(=O)C3CC3)C2)c2c(n(C)c3cc(OC)ccc23)[C@H]1CO
61	-1.9	0	-2	1.1	CO[C@@H]1CN(C)C(=O)c2ccc(NS(=O)(=O)CC(F)(F)F)cc2OC[C@H](C)NC[C@@H]1C
62	16	-58	-73	-12	CC(C)CC#Cc1ccc([C@H]2[C@H](CO)N3CCCCN(C(=O)c4ccc5c(c4)OCO5)C[C@@H]23)cc1
63	-3.2	6	5	-1.3	CC(C)NC(=O)N(C)C[C@H]1OCCCC[C@@H](C)Oc2ccc(NS(=O)(=O)c3cn(C)cn3)cc2C(=O)N([C@H](C)CO)C[C@@H]1C
64	-0.5	1	3	-0.6	C[C@H](CO)N1C[C@H](C)[C@@H](CN(C)Cc2ccncc2)Oc2ccc(NC(=O)C3CC3)cc2CC1=O
65	-3.9	3	-2	11	C[C@H]1CN([C@@H](C)CO)C(=O)c2cc(NC(=O)Cc3ccccc3)ccc2O[C@H]1CN(C)Cc1ccc(Cl)c(Cl)c1
66	-19	-4	-5	0.0	C[C@@H]1CN([C@@H](C)CO)S(=O)(=O)c2ccc(C#C[C@@H](C)O)cc2O[C@H]1CN(C)CC1CCCC1
